Source: PubChem (Johns Hopkins Ion Channel Center)
KCNQ2 block: KCNQ2 potassium channel inhibitors, primary screen, cell-based, CHO-K1, FluxOR thallium flux, B-score (AID 2156); 1.1% of 310,000 active; 20 min; hits give low values; only compounds with negative scores are shown here; some inactives read as strong as hits; B-score at 10 µM; O88943;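 active means fluorescence ratio B-score at most minus 3 library SDs, with starting brightness B-score within 2 library SDs, cut at about -5.5 in these data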
KCNQ2 block baseline: also measured in KCNQ2 block; calls as there; B-score; measured here: initial fluorescence intensity artifact check;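 brightness before thallium and not channel activity; 0 = typical well and far values either way flag optical interference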
* = called active by the depositor; i = inactive; & = joins results of further samples.

1	CCCNC(=O)OC[C@H]1O[C@H](CCO/N=C/c2ccc(C(=O)N3[C@H](c4ccc(C)cc4)[C@@H](C)CC[C@H]3C(=O)OC)cc2)C=C[C@@H]1Oc1ccc(OC)cc1
2	Cc1ccc(C)c(-c2cc(C(=O)Nc3nccs3)c3ccccc3n2)c1
3	CC(C)n1c(O)c(/C=C2\C=NN=C2c2ccccc2)sc1=S
4	O=C(OCC(=O)c1cccs1)C1=COCCO1
5	CNc1ccc(Br)cc(C(=O)/C=C/c2cccc(OC)c2OC)c1=O
6	COc1ccc(/C(N)=N/OC(=O)Cc2ccccc2OC)cc1
compound no.,1,2,3,4,5,6
KCNQ2 block,i,i,i,i,i,i
KCNQ2 block baseline,-0.15,-0.59,0.68,-0.6,-1.1,-1.2

Random excerpt: two compounds from above, in no set order.
5	CNc1ccc(Br)cc(C(=O)/C=C/c2cccc(OC)c2OC)c1=O
6	COc1ccc(/C(N)=N/OC(=O)Cc2ccccc2OC)cc1
compound no.,5,6
KCNQ2 block,i,i
KCNQ2 block baseline,-1.1,-1.2

Remaining list, next part
7	O=C(CCN=C1NS(=O)(=O)c2ccccc21)OCC(=O)c1ccc(F)c(F)c1
8	Cc1ccc(S(=O)(=O)N/N=C/c2ccc(OS(=O)(=O)c3ccc(C)c([N+](=O)[O-])c3)cc2)cc1
9	Cc1ccc(N(CC(=O)NC2CCCCC2)C(=O)CCC(=O)Nc2nccs2)cc1
10	COc1ccc(CNC(=O)C23CN(Cc4ccccc4)CC2C(c2ccc([N+](=O)[O-])cc2)=NO3)cc1 (configuration not stated)
11	CC1(C)CC2CC(C)(CN2Cc2cccc([N+](=O)[O-])c2)C1 (configuration not stated)
12	CN(C)CCN(C(=O)c1ccc(S(=O)(=O)N2CCc3ccccc32)cc1)c1nc2ccc(F)cc2s1
compound no.,7,8,9,10,11,12
KCNQ2 block,i,i,i,i,i,i
KCNQ2 block baseline,-0.49,0.14,1,0.26,-1.1,-0.69

13	Cc1ccc(N2CCN(S(=O)(=O)c3ccc(Cl)s3)CC2C)cc1 (configuration not stated)
14	COc1ccc(CCn2c(SCCN3CCCCC3)nc3ccccc3c2=O)cc1OC
15	CCCN(C(=O)Cc1nc(N)n[nH]1)C1(C(=O)Nc2ccccc2C)CCCCC1
16	COCC(=O)N(CCN(C)C)Cc1cc2cc3c(cc2nc1Cl)OCO3
17	COc1cc(CCC(=O)Nc2c(C(=O)N3CCN(c4ccccc4)CC3)oc3ccccc23)on1
18	CCN(CC)CCCNC(=S)N(Cc1cccnc1)Cc1cc2cc(C)cc(C)c2[nH]c1=O
compound no.,13,14,15,16,17,18
KCNQ2 block,i,i,i,i,i,i
KCNQ2 block baseline,1.8,-0.16,-0.4,0.48,0.31,1.1

An excerpt of these results, field by field:
(15) CCCN(C(=O)Cc1nc(N)n[nH]1)C1(C(=O)Nc2ccccc2C)CCCCC1
  KCNQ2 block: i
  KCNQ2 block baseline: -0.4

(16) COCC(=O)N(CCN(C)C)Cc1cc2cc3c(cc2nc1Cl)OCO3
  KCNQ2 block: i
  KCNQ2 block baseline: 0.48

(17) COc1cc(CCC(=O)Nc2c(C(=O)N3CCN(c4ccccc4)CC3)oc3ccccc23)on1
  KCNQ2 block: i
  KCNQ2 block baseline: 0.31

(18) CCN(CC)CCCNC(=S)N(Cc1cccnc1)Cc1cc2cc(C)cc(C)c2[nH]c1=O
  KCNQ2 block: i
  KCNQ2 block baseline: 1.1

Carrying on:
19	CC(=O)c1ccc(N(CC(=O)NCC2CCCO2)C(=O)CCC(=O)Nc2cc(C)on2)cc1 (configuration not stated)
20	COc1ccc(C(=O)O/N=C(\N)c2ccccc2)cc1OC
21	C[C@H](NC(=O)[C@@H]1CSC2c3ccccc3C(=O)N21)C(=O)NCCc1ccccc1 (some centres not stated)
22	Cn1c(O)c(N=NC(=O)c2cccc(S(=O)(=O)N3CCCCC3)c2)c2ccccc21
23	CN(C)c1ccc(NC(=O)c2cccc(C(=O)Nc3ccc(N(C)C)cc3)n2)cc1
24	NC(N)=NC(=O)c1nc(Cl)c(N)nc1N
compound no.,19,20,21,22,23,24
KCNQ2 block,i,i,i,i,i,i
KCNQ2 block baseline,0.18,-0.12,2.1,0.01,0.01,-0.01&-1

25	O=C(CNc1cccc([N+](=O)[O-])c1)NCCCc1ccccc1
26	Cc1ccc(C23CC4CC(CC(NC(=O)N5CCN(C)CC5)(C4)C2)C3)cc1
27	Cc1c(C(=O)N2CCN(c3ccc([N+](=O)[O-])cc3)CC2)sc2ncn(CC(=O)N3CCOCC3)c(=O)c12
28	Cc1ccc2nc(NC3=NC(CC(=O)O)C(=O)N3)nc(C)c2c1 (configuration not stated)
29	CC(C)CNc1nc(Oc2ccc(=O)n(-c3ccccc3)n2)nc(N2CCOCC2)n1
compound no.,25,26,27,28,29
KCNQ2 block,i,i,i,i,i
KCNQ2 block baseline,0.01,0.1,0.13,0.09,0.24

This is a subset (hit frequency here may not be typical).
